D2 agonist – Beta-Arrestin HTS for Positive Allosteric Modulators of the Human D2 Dopamine Receptor: Agonists; activation, % (concentration not given with the values); D(2) dopamine receptor (Homo sapiens), P14416; DiscoveRx PathHunter D2 beta-arrestin, luminescence, 90 min; 100% = 57 uM dopamine signal; AID 624465, 2012; actives 0.084% (n = 360,000); in the data active = activation above about 40%; inconclusive = about 15% to 40%; inactive = below about 15%; also: compound concentration not given in the record; the text of the record calls up to 30% inactive
Target sequence (P14416 whole entry, looked up): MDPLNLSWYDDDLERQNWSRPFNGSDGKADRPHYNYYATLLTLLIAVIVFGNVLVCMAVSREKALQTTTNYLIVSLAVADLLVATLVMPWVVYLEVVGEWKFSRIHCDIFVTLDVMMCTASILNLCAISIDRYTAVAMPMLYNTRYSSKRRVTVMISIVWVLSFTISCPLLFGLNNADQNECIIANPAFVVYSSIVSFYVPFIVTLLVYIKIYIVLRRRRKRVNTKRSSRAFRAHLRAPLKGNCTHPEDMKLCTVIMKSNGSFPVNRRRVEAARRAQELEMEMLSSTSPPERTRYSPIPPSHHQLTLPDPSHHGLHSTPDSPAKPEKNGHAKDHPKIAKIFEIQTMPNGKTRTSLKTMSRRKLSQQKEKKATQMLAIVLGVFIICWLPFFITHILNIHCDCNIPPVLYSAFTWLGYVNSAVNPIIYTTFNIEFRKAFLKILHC
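Agonist mode: compounds alone added to overnight-plated D2 PathHunter cells for 90 min at 37 C, with 57 uM final dopamine (EC100) defining full response. Beta-arrestin recruitment detected by chemiluminescent reagent, read after 1 h at ambient temperature.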
gsp antag – qHTS for Antagonists of gsp, the Etiologic Mutation Responsible for Fibrous Dysplasia/McCune-Albright Syndrome: qHTS | gsp-mutant cells, cAMP HTRF, 30 min; control for the full effect not named in the record | Potency, µM (highest dose often 76.9 µM), for the others: top-dose activity change, negative = inhibition, hits mostly inhibitors | actives 0.4% (n = 340,000) | AID 624288, 2012; active = falling curve of any shape with a large fitted effect; inconclusive = falling curve, mostly with a smaller effect; inactive = flat or rising curve; cell line not stated here;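 also: intracellular cAMP measured with PDE inhibitor Ro 20-1724 present during compound exposure; potency is read from the fitted curve at half-maximal effect; % is scaled to controls: 0 for no effect and ±100 for the full control effect; nearly all actives have a fitted effect of over 65% in size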
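HTRF cAMP measurement after 30 min RT detection following 30 min, 37C compound treatment alongside […] (added as 300 uM solution) in G418-selected cells seeded at 2000/well and grown 16–24 h.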
Menin MLL FP FL – qHTS Assay for Inhibitors Targeting the Menin-MLL Interaction in MLL Related Leukemias: Competition With Fluorescein Labeled MLL-derived Peptide; Fluorescence polarization, fluorescein-MLL peptide displacement from menin; FP activity change, % at 61.4 µM; 290,000 tested, under 10 active; inconclusive = falling polarisation curve, or a change in total fluorescence; inactive = total fluorescence flat and polarisation flat or rising; no compound was filed as active; the % refers to the polarisation; negative = inhibition;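 also: % of control where 0% means no effect; inhibitors lower the polarisation; unlabelled MLL peptide was the positive control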
ClpP mod – qHTS Assay for Activators of ClpP; Potency, µM (doses to about 57.5 µM), for the others: at the highest dose activity change, negative = active; ATP-dependent Clp protease proteolytic subunit (Bacillus subtilis (strain 168)), P80244; AID 651965, 2013; purified B. subtilis ClpP, FRET peptide cleavage, 20 min; actives 1.9% (n = 340,000); active = well fitted falling curve with a large enough effect; inconclusive = small, poorly fitted or top-dose-only effect; inactive = no such curve, though single readings can be large or run the other way; also: potency is read from the fitted curve at half-maximal effect; the source files actives as falling curves though it sought activators and does not explain the sign; nearly all actives have a fitted effect of over 65% in size; many hits overshoot -100%
Target sequence (P80244 whole entry, looked up): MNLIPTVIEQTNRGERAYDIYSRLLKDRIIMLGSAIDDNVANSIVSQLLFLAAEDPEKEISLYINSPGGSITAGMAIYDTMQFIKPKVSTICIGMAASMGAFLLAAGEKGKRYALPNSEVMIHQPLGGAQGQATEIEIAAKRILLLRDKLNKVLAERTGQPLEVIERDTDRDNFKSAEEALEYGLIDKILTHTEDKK
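FRET quenching reversal measured ClpP activation: 10 microg/mL B. subtilis ClpP at pH 8 with the FRET-FV decapeptide, read at 430 nm after 320 nm excitation. The 20-min minus 0-min signal was scaled between DMSO/no-enzyme wells and ADEP (5.8 microM final).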
Sfp inh – qHTS Assay for Inhibitors of Bacillus subtilis Sfp phosphopantetheinyl transferase (PPTase). 4'-phosphopantetheinyl transferase ffp (Bacillus subtilis), Q9F4F7. Biochemical Sfp PPTase activity, qHTS. Potency, µM, for inactives: max response, negative = inhibition, most hits filed as inhibitors. actives 3.5% (n = 310,000). AID 1490, 2009; active = well fitted inhibition curve with a large enough effect; inconclusive = small, poorly fitted or top-dose-only effect, or another doubt; inactive = no such curve, though single readings can be large or run the other way;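 also: the enzyme is Sfp with the accession as filed and its product quenches rhodamine fluorescence; potency is read from the fitted curve at half-maximal effect; 0% = enzyme reaction without inhibitor and -100% = no enzyme wells; top concentration of the series not given in the record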
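With Hepes-Na pH 7.6 buffer containing 10 mM MgCl2, Sfp (15 nM) modified BHQ-2-YbbR (12.5 uM) using rhodamine-CoA (5 uM). Two reads 30 minutes apart at 525/598 nm yielded each well's rate.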
gsp agonist – qHTS for Agonist of gsp, the Etiologic Mutation Responsible for Fibrous Dysplasia/McCune-Albright Syndrome: qHTS; actives 0.13% (n = 340,000); AID 624287, 2012; gsp mutant cells, cAMP HTRF, 30 min; control for the full effect not named in the record; Potency, µM (highest dose often 76.9 µM), for inactives: at the highest dose activation (cAMP increase), usual class: activators; active = well fitted activation curve with a large enough effect; inconclusive = small, poorly fitted or top-dose-only effect, or another doubt; inactive = no such curve, though single readings can be large or run the other way; cell line not stated here;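 also: phosphodiesterase inhibitor Ro 20-1724 added with compounds to block cAMP breakdown; potency is read from the fitted curve at half-maximal effect; nearly all actives have a fitted effect of over 60% in size; about a fifth of the inactives were tested at one dose only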
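Cells in DMEM/10% FBS with G418 were pretreated with compounds in DMSO plus […] (300 uM stock) for 30 min at 37C. cAMP was measured by HTRF (cAMP-d2 plus anti-cAMP antibody-K) after 30 min at room temperature.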
PINK1 expr mod – A Quantitative High throughput Screen to Identify Chemical Modulators of PINK1 Expression | PINK1 immunofluorescence, high-content cytometry, 24 h | Potency, µM (top dose mostly 76.6 µM), for inactives: top-dose activation (PINK1 increase), usual class: activators | actives 0.2% (n = 410,000); active = well fitted activation curve with a large enough effect; inconclusive = small, poorly fitted or top-dose-only effect; inactive = flat fitted curve, though single readings scatter; cell line not stated here;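 also: potency is read from the fitted curve at half-maximal effect; % of control where 0% means no effect; nearly all actives have a fitted effect of over 65% in size; a mitochondrial uncoupler was the plate control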
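Stable cell line, 250 cells/well, 12 h attachment; compounds pinned at 5 concentrations, 24 h; CCCP control. Fixed with nuclear dye, primary antibodies 12 h at 10 degrees C, secondary plus cell stain; laser-scanning cytometer read.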
* hit, by the source's call; ? = inconclusive; / = not tested or not shown; & = joins results of further samples; [ ] = another dose, or the depositor's remark. Compounds as they come. About 5.1% of those tested had a hit in this group.

Every second line gives: ClpP mod	PINK1 expr mod	D2 agonist	gsp antag	Menin MLL FP FL	gsp agonist	Sfp inh
CN(C)S(=O)(=O)c1cccc(C(=O)OCC(=O)c2ccc3c(c2)NC(=O)CO3)c1
 : -0.7%	0.9%[38.3 µM]	0.0	-26.8%	9.9	-14.6%	15.4%
C=CCOc1ccc2ccccc2c1/C=N/O
 : -6.0%	1.0%	-2.8	1.0%	1.6	4.7%	-3.5%
CCn1cc([N+](=O)[O-])c(C(=O)Nc2c(C)nn(Cc3c(F)c(F)c(F)c(F)c3F)c2C)n1
 : 1.2%	9.1%[38.3 µM]	-0.8	-3.4%	-1.8	?	-1.1%
Cc1ccc(N(C(=O)c2snc(C(N)=O)c2N)C(C(=O)NCC2CCCO2)c2ccc(C)o2)c(C)c1 (stereo unspecified)
 : /	1.2%	-1.5	-19.9%	-1.8	0.6%[15.4 µM]	-6.7%
CCOC(=O)c1cccc(NC(=O)CSc2nnc(-c3cccnc3)n2CC)c1
 : -2.0%	-1.0%	-0.8	-2.6%	0.8	0.9%	-13.2%
CCc1ccc2c(CC(=O)NNC(=O)c3ccncc3)coc2c1
 : 0.4%	-0.7%	4.6	4.3%	/	-6.9%	/
Cc1ccccc1N1CCN(C(=S)c2ccc(-c3ccc([N+](=O)[O-])cc3)o2)CC1
 : 0.8%	2.3%	-2.9	2.2%	5.7	10.3%[15.4 µM]	20µM*
CCn1c(Cc2ccccc2)nnc1SCC(=O)Nc1ccc2c(c1)OCCO2
 : 1.1%	14.1%[38.3 µM]	-2.0	-5.2%	-1.3	0.3%	7.5%
CCOc1ccc(C(=O)NCC(=O)NCCCSc2ccccc2)cc1OCC
 : -2.3%	-1.6%	0.4	4.7%	/	-9.9%	8.7%
c1ccc(-c2nc3c4ccccc4ccn3c2CN2CCOCC2)cc1
 : 2.9%	-0.6%	-4.0	-15.7%	-1.6	-41.4%[inhibitor]	14.0%
Nc1ccc(C(=O)OCC(=O)N2CCc3ccccc3C2)cc1[N+](=O)[O-]
 : -6.5%	3.7%	-3.7	-18.8%	1.9	-27.6%	-9.6%
Cc1ccc(CCNS(=O)(=O)c2ccc3c(c2)N(C)CCO3)cc1
 : -3.5%	1.4%	3.8	9.7%	/	13.2%	2.2%
O=C(N/N=C/c1cccc(O)c1)c1ccc(NC(=O)C2CCCCC2)cc1
 : 0.2%	4.8%	?	-2.2%	-1.8	?	-5.9%
O=C(NCC1CC1)c1cccc2c1C(=O)c1ccc(N3CCCC3)cc1S2(=O)=O
 : 1.0%	-1.1%	-0.5	-10.2%	/	9.2%	/
O=[N+]([O-])c1ccc(Nc2ccc(F)cc2)nc1
 : ?	2.6%	-5.1	-4.5%	4.2	-19.3%	1.5%
Cc1nc2ccc(Cc3ccc4nc(C)[nH]c4c3)cc2[nH]1
 : 0.5%	-1.1%	-2.4	-22.9%	1.2	-11.8%	6.5%
Cc1cc(C(=O)N/N=C/c2ccco2)c2ccccc2n1
 : -0.9%	?	-1.9	9.5%	2.1	15.5%[15.4 µM]	-1.3%
CC(C)CN(C(=O)CSc1nc(N)cc(N)n1)C1CCS(=O)(=O)C1 (stereo unspecified)
 : 0.6%	0.6%	-1.8	13.4%	/	4.0%[15.4 µM]	/
COC(=O)c1[nH]c2cccc(C)c2c1NC(=O)CN1CCCc2ccccc21
 : -12.9%	2.2%	2.2	-7.2%	7.4	17.0%	-4.7%
CC(=O)C1=C(c2cccc([N+](=O)[O-])c2)N(C(C)=O)n2c(C)nnc2S1
 : 0.1%	0.5%	-15.2	?	-0.6	-15.7%	-10.9%
CCn1c(=O)c2cc(C(=O)NCCCOC)sc2c2ccccc21
 : 3.4%&3.6%	5.9%&14.1%	-2.4	25.1%	-3.8	?	-0.6%
Cc1c(Br)c(=O)[nH]c(=O)n1COCc1ccccc1
 : -0.3%	2.3%	-3.7	7.0%	5.8	-3.3%	4.5%
CCC1(C)Cc2c(sc3nc(SCC(=O)c4ccccc4)[nH]c(=O)c23)CO1 (stereo unspecified)
 : /	6.6%	5.1	-9.7%	1.0	0.7%[15.4 µM]	6.7%
COc1ccc2nc3oc(C(=O)N4CCC(C(N)=O)CC4)cc3cc2c1
 : 28.2µM*	0.8%	1.1	3.0%	1.5	16.2%	18.4%
CCOc1ccc(NC(=O)CN2C(=O)COc3ccc(Cl)cc32)cc1
 : 2.2%	10.9%	1.3	4.7%	-1.5	-18.5%	0.7%
COC(=O)[C@@]1(C)[C@H]2C(=O)N(C)C(=O)[C@H]2[C@H]2CN=C(SCc3ccc(C#N)cc3)N21
 : 0.6%	-1.0%	-0.6	-4.3%	/	/	/
COc1cccc(Cn2c(=O)c(-c3cccc(C#N)c3)nc3cnc(OC)nc32)c1
 : /	3.6%	/	/	10.5	/	8.5%
Nc1ccc(C(=O)OCc2nc3ccccc3[nH]2)cc1
 : 0.5%	-1.0%	0.1	6.5%	-1.2	-65.2%[inhibitor]	7.2%
O=C(CCC1CCCN(C(=O)c2cc(C3CC3)[nH]n2)C1)N1CCN(c2ccccn2)CC1 (stereo unspecified)
 : /	2.4%	-1.7	-0.1%	-0.9	7.8%[15.4 µM]	18.3%
COC(=O)C[C@@H]1C[C@H]2c3cc(NC(=O)Nc4ccccc4F)ccc3O[C@H]2[C@H](CO)O1
 : -0.4%	2.9%	-2.8	/	/	-8.0%	/
O=C(Nc1cccc(C(=O)N2CCCCC2)c1)C1CCCC1
 : 1.7%	0.9%	0.3	5.9%	/	/	/
CC1=C(C(=O)OCc2ccccc2)C(c2ccc(Cl)cc2Cl)NC(=O)N1CCCC(=O)O (stereo unspecified)
 : 1.3%	1.2%	-5.2	-18.9%	0.4	14.6%	?
COCCn1c(SCC(=O)NC2CCCC(C)C2C)nc2ccccc2c1=O (stereo unspecified)
 : /	4.2%	-4.5	-4.3%	/	21.2%[15.4 µM]	/
Cc1nn2c(NCc3ccccn3)cc(C(C)(C)C)nc2c1-c1ccccc1
 : ?	17.8µM*	-4.8	3.3%	-0.2	-4.6%	5.5%
Nc1ccccc1Oc1ccc2ccccc2c1
 : -2.0%	10.2%	-4.5	-5.3%	-2.8	?	-9.5%
COCCNCC(=O)C12CC3CC(CC(C3)C1)C2
 : -0.4%	-5.5%[38.3 µM]	0.9	-16.4%	-1.7	-38.0%[inhibitor]	5.1%
Cc1cc(C)nc(NC(=O)NC(=O)c2ccccc2)n1
 : 2.3%	1.3%	3.6	7.0%	/	-9.2%	4.0%
Nc1ccc(S(=O)(=O)c2cccc(N)c2)cc1
 : -8.0%	?	-2.1	3.6%	1.7	-7.5%	8.1%
O=C(COC(=O)CCC(=O)c1ccc(F)cc1)NCCc1ccccc1
 : /	1.5%	-1.4	-2.2%	/	?	/
CCCN(Cc1nnc(-c2ccccc2Cl)o1)C(=O)c1ccc(C)c(S(=O)(=O)N2CCOCC2)c1
 : 1.2%	-3.8%	1.0	-6.5%	/	-0.7%	/
O=C1C=C(c2ccccc2C(F)(F)F)C[C@@H](c2ccc3c(c2)OCO3)C1
 : -2.8%	4.7%	0.3	-15.3%	/	/	/
COc1ccc(C2C(C#N)=C(N)OC3=C2C(=O)CC(C)(C)C3)cc1Cn1nc(C)c([N+](=O)[O-])c1C (stereo unspecified)
 : -3.6%	2.3%	-0.4	5.1%	5.7	-18.5%	7.0%
O=C(C1COc2ccccc2O1)N1CCN(c2ccccc2F)CC1 (stereo unspecified)
 : -0.7%	-0.6%[38.3 µM]	-3.2	1.5%	0.2	38.6%	7.3%
CC(C)CC(=O)Nc1nnc(S(=O)(=O)Nc2ccccc2)s1
 : 1.4%	-2.2%	0.1	-7.0%	-3.8	?	4.9%
Cn1c(=O)c2c3c(sc2n2c(SCC(N)=O)nnc12)CC(C(C)(C)C)CC3 (stereo unspecified)
 : 0.8%	1.9%[38.3 µM]	-2.9	-7.0%	-1.9	-12.1%	-27.3%
CCC(=O)N1CCN(c2ccc(NC(=O)c3cc4ccccc4o3)cc2)CC1
 : ?	1.9%	-9.3	?	-0.8	-18.2%	5.8%
COc1ccc([N+](=O)[O-])cc1NC(=O)C1CCCN1S(=O)(=O)c1cccs1 (stereo unspecified)
 : /	1.3%	-5.0	-6.4%	/	10.8%[15.4 µM]	/
COc1ccc(Cl)cc1C(=O)NNC(=O)CCNC(C)=O
 : -0.1%	1.6%	-2.2	7.1%	0.2	-12.9%[15.4 µM]	6.7%
N#CCC(=O)N/N=C/c1cn(Cc2ccc3ccccc3c2)c2ccccc12
 : /	-0.7%	-3.5	4.0%	3.1	-0.6%[15.4 µM]	16.4%
COc1ccccc1CN1CC(C(=O)NCCN2CCOC2=O)CCC1=O (stereo unspecified)
 : 2.5%	1.5%	-3.6	14.4%	/	3.5%	16.6%
CCCCC#Cc1cncc(C(=O)N/N=C/c2ccccc2)c1
 : -1.4%	1.6%	-4.6	-4.8%	1.5	-4.6%[15.4 µM]	-4.3%
COC(=O)NCC(c1ccc2c(c1)OCO2)N1CCN(c2ccccc2)CC1 (stereo unspecified)
 : -0.3%	0.2%	0.9	-6.4%	3.7	-18.7%	18.8%
Cc1c(-n2c(O)c(C3=c4ccccc4=NC3=O)sc2=O)c(=O)n(-c2ccccc2)n1C
 : /	1.2%	10.8	1.7%	0.6	10.7%[15.4 µM]	22.5%
N#Cc1cccc(NC(=O)Cc2ccccc2)c1
 : /	2.3%	-4.3	2.2%	-4.2	-11.5%	17.9%

Compound activity: PubChem BioAssay, National Center for Advancing Translational Sciences (NCATS)
